VDR inhibitor: vitamin D3 receptor (human) inhibition | P11473 | VDR-SRC2-3 peptide fluorescence polarization, 2 h | Potency, µM, without a hit: max response, negative = inhibition, hits mostly inhibitors | actives 0.93% (n = 400,000); active = well fitted inhibition curve with a large enough effect; inconclusive = small, poorly fitted or top-dose-only effect, or another doubt; inactive = no such curve, though single readings can be large or run the other way; note: series mostly up to about 120 µM
Target sequence (P11473 whole entry, looked up): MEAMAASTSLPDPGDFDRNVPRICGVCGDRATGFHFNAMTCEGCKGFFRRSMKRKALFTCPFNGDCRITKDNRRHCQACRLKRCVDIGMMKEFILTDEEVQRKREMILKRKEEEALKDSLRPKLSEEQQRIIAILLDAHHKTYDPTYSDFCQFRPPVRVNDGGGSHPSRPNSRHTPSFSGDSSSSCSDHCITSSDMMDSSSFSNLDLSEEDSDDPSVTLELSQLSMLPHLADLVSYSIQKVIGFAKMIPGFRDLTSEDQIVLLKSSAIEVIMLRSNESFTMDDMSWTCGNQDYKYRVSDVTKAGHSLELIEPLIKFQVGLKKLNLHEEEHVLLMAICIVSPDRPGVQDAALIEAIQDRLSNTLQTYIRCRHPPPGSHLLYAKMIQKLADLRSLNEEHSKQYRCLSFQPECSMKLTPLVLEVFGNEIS
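Measured by FP: displacement of SRC2-3 coactivator peptide from VDR by library compounds, following a two-hour ambient incubation.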
* marks the source's active call; other numbers are inactive results; ? = inconclusive; & = joins results of further samples; [ ] = dose if it differs, or a comment. % is set by controls: 0 for no effect and ±100 for the full control effect; potency is the fitted concentration of half-maximal effect. Not all compounds are listed; rates above refer to the full screens.

SMILES | VDR inhibitor
O=C(COC(=O)[C@@H]1CCCN1S(=O)(=O)c1ccccc1F)c1ccccc1 | 9%
COc1cc2ccccc2cc1C(=O)Nc1ccc2oc(-c3ccc(F)cc3)nc2c1 | -5%
CC1CC=CC2C1C(=O)N(Cc1ccccc1)C2c1ccc2ccccc2c1-c1ccc(N(C)C)cc1 (centres undefined) | 12%
Cc1cccc(/C=C/c2nc3ccccc3c(=O)[nH]2)c1 | -17%
CCc1ccc(-c2cc(C)no2)cc1S(=O)(=O)NCCc1ccccc1 | 25%
COc1ccc(CC2C(=O)OC(C)(C)OC2=O)c(Cl)c1OC | 3%
COc1ccc(NC(=O)CCCc2nnc3n(CCC(C)C)c(=O)c4sccc4n23)cc1Cl | 7%
CCCn1c(=O)c2c(nc3n2CCN3c2ccc(C)cc2)n(C)c1=O | 14%
CC1CCN(S(=O)(=O)c2cccc(C(=O)N(C)C3CCS(=O)(=O)C3)c2)CC1 (centres undefined) | 7%
O=C(Cc1ccccc1)Nc1sc2c(c1C(=O)Nc1ccccc1)CCCCC2 | ?
OCCC1CN(Cc2c(O)ccc3ccccc23)CCN1CCc1ccccc1 (centres undefined) | ?
N=c1sccn1CC(=O)NCCc1ccc(Cl)cc1 | ?
CCCCn1c(CCC(=O)O)nc2c1c(=O)[nH]c(=O)n2CCC | -6%
CCOC(=O)C(=O)N/N=C/c1cccc(Br)c1 | -4%
Nc1ccc(C(=O)NCC(=O)O)cc1 | -2%&-4%
Cc1[nH]c2ccc(C(=O)OCCN(C)C)cc2c1C | 13%
O=Cc1cn(CC(=O)N2CCOCC2)c2ccccc12 | 9%
O=C(COc1ccc([N+](=O)[O-])cc1)N(Cc1ccccc1)Cc1ccccc1 | 7%
COC(=O)c1cc(NC2c3ncccc3C(=O)N2Cc2ccccc2)cc(C(=O)OC)c1 (centres undefined) | 1%
O=C(/C=C/c1cccc([N+](=O)[O-])c1)NCCSc1ccccc1 | -7%
CCOc1ccc(NC(=O)N2CCC(C(=O)c3ccc(F)cc3)CC2)cc1 | -9%
COc1ccc(C2C(C#N)=C(N)Oc3cc(C)n(Cc4ccncc4)c(=O)c32)cc1 (centres undefined) | 12%
C=CC[N+](C)(C)CCN1C(=O)C2C(c3ccccc3)C=CC(c3ccccc3)C2C1=O (centres undefined) | -10%
COc1ccc(CCC(C)NCC2CCCCC2)cc1 (centres undefined) | 25%
CCc1ccc(NC(=O)C(=O)N/N=C(\C)CC(=O)Nc2ccc(OC)cc2)cc1 | -13%

Additional entries follow.
SMILES | VDR inhibitor
COc1ccc(-n2c(=S)[nH]c3cc(C(=O)NCCCN4CCCC4=O)ccc3c2=O)cc1OC | 9%
COc1ccc(/C=C/c2c(-c3cccc(C)c3)oc3ccc(-c4ccc5c(c4)OCO5)cc23)cc1 | -15%
CCCC1CCC(=NNC(=O)OC(C)(C)C)CC1 (centres undefined) | -5%
CCS(=O)(=O)C1=NSC2=NC(=O)/C(=C\c3cc(C)n(-c4cccc(OC)c4)c3C)C(=N)N21 | 5%
O=C1CC(c2nc(-c3ccc(Cl)cc3)no2)CN1c1ccc2c(c1)OCCO2 (centres undefined) | 3%
CC(=O)c1nn(-c2cccc(C)c2)cc1C(=O)c1cccc(Br)c1 | 4%
O=C(COC(=O)c1cc(S(=O)(=O)N2CCCCC2)ccc1N1CCOCC1)NC1CCCCC1 | -1%
Cc1[nH]c2ccc(C(=O)NCC(C)(C)N3CCOCC3)cc2c1C | 14%
CCOC(=O)c1[nH]nc(N)c1NC(=O)c1ccc(Cl)cc1Cl | -13%
CC(=O)c1ccc(OCC(=O)OCc2cc(-c3ccco3)on2)cc1 | -5%
O=C1COC(c2ccccc2)=CN1Cc1ccccc1 | -15%
O=C(O)/C=C/C(=O)NCCc1ccc(Cl)cc1 | -11%
CC(=O)N1c2ccc(S(=O)(=O)N(C)CC(=O)NC3CCCC3)cc2CC1C (centres undefined) | -13%
COCCn1c(SCC(=O)Nc2ccc3[nH]c(=O)[nH]c3c2)nc2ccccc2c1=O | 12%
O=C(COC(=O)c1ccc2ncsc2c1)Nc1ncc(Cl)cc1Cl | -12%
COc1ccc(-c2nc(/C=C3\C(C)=Nc4ccccc43)c(O)o2)cc1 | 1%
COc1ccc(OCc2cc(C(=O)N3CCCC(O)C3)no2)c2ccccc12 (centres undefined) | -7%
CSc1nc2c(c(=O)n1-c1ccc(F)cc1)SCC2 | 11%
COc1ccc(C2CC(c3cccs3)Nc3nnnn32)cc1 (centres undefined) | -8%
O=C(O)C(Oc1ccc2ccc(=O)oc2c1)c1ccccc1 (centres undefined) | 12%
COc1ccc(-c2nnn(CC(=O)N(CCCN3CCOCC3)C(C(=O)NC3CCCC3)c3ccc(C)o3)n2)cc1 (centres undefined) | 2%
O=C(NCCc1ccccc1)C(c1cccs1)N(C(=O)c1csnn1)C1CC1 (centres undefined) | -9%
COc1ccccc1C(=O)NNC(=O)c1sccc1-n1cccc1 | -11%
CCCCC(O)(CCN1CCOCC1)c1ccc(Cl)cc1 (centres undefined) | -3%
Cc1ccc(-c2nc(N3CCCC(C)C3)c3ccccc3n2)cc1 (centres undefined) | 7%

The results go on.
SMILES | VDR inhibitor
CCc1cccc(C)c1NC(=O)CSc1n[nH]c(N)n1 | 2%
Cc1ccccc1-c1nnc(-c2ccccc2)o1 | 1%
O=C(NCCc1ccc(Cl)cc1)c1cccn1-c1nnc(N2CCCC2)s1 | 10%
Cn1nnnc1Sc1ncnc2scc(-c3ccc(Cl)cc3)c12 | ?
CCC1Oc2ccccc2N(CC(=O)NCCCN2CCCCC2CC)C1=O (centres undefined) | 4%
CC(=O)N(C(C)=O)c1ncc2c([nH]c3ccccc32)c1C#N | ?
COc1ccc(OC)c(CCNC(=O)c2ccc(CS(=O)Cc3cccc(Cl)c3)o2)c1 (centres undefined) | 8%&13%
CCOC(=O)C1=C(N)OC2=C(C(=O)CC(C)(C)C2)C1c1ccc(C)s1 (centres undefined) | -23%
COc1ccc(N(C)C(=O)c2oc(=O)c3ccccc3c2-c2ccc(C)cc2)c(OC)c1 | -15%&-4%
CN1CCN(S(=O)(=O)c2ccc(N3CCN(c4ccccc4O)CC3)c([N+](=O)[O-])c2)CC1 | -2%
O=C(c1cccc(F)c1)N1CCC2(CCCN(Cc3ccccc3)C2)CC1 | -1%
COCCn1c(C)cc(C2=NNC(=Nc3ccc(Cl)cc3Cl)SC2)c1C | 2%
Cc1ccc(CSCC(=O)N(C)CC(=O)Nc2cccc(F)c2)cc1 | -8%
O=c1oc2ccccc2c(O)c1Cc1cc(Cl)c2cccnc2c1O | -9%
Cc1cc([N+](=O)[O-])nn1CC(=O)Nc1nccs1 | 0%
CCC1(O)c2ccccc2-c2ncccc21 (centres undefined) | -9%
C[C@@H]1CCC2[C@@H](C)[C@@H](O)O[C@@H]3O[C@@]4(C)CC[C@@H]1[C@@]23OO4 (some centres undefined) | 30%
CCOC(=O)c1c(N)sc(C(=O)N2CCCCCC2)c1C | 26%
CCOC(=O)COc1ccc(CC)cc1C(=O)c1ccn2nc(-c3ccc(C)cc3)cc2n1 | -4%
Cn1c(=O)[nH]c(=O)c2c1nc(N1CCc3ccccc3C1)n2CCSc1nc2ccccc2s1 | 11%
O=C(Nc1ccc(F)cc1F)C1CCCN(c2ncnc3c2nc2n3CCCCC2)C1 (centres undefined) | -4%
CN1CCN(c2nc3cc(C(F)(F)F)ccc3n3cccc23)CC1 | -6%&8%
O=C(NCc1ccccn1)C(C(=O)c1cccc([N+](=O)[O-])c1)n1cc(Cl)ccc1=O (centres undefined) | -9%
CCc1ccc2oc(-c3ccc(C)c(NC(=O)c4ccc(C#N)cc4F)c3)nc2c1 | 8%
COC(=O)c1[nH]c2ccc(C)cc2c1NC(=O)CN1CCN(Cc2ccccc2)CC1 | 2%

Carrying on.
SMILES | VDR inhibitor
O=C(COc1ccccc1[N+](=O)[O-])OC1CCS(=O)(=O)C1 (centres undefined) | 2%
O=C(O)CC1NC(=O)N(C2CCCCC2)C1=O (centres undefined) | -1%
O=C(O)CC(NC(=O)c1ccc2c(c1)OCO2)c1cccc([N+](=O)[O-])c1 (centres undefined) | -3%
CN(CC(=O)Nc1cccc(F)c1)C(=O)C1CCN(C(=O)c2ccc(Cl)cc2)CC1 | 12%
O=[N+]([O-])c1cc(-c2ccc(C(=S)N3CCOCC3)o2)ccc1Cl | 10µM*
COc1ccc(COc2ccc(C3C(S(=O)(=O)c4ccccc4)CON3C)cc2OC)cc1 (centres undefined) | 4%
Cc1cccc(N2CCN(S(=O)(=O)c3c(C)nc4scc(C)n4c3=O)CC2)c1C | 10%&-12%
OCCOCCOCCn1c2ccccc2c2ccccc21 | 7%
O=S(=O)(c1ccc(Oc2ccc(Cl)cc2)nc1)N1CCOCC1 | -17%
Cc1cccn2c(=O)c(C(=O)NC3CCCCC3C)c(O)nc12 (centres undefined) | -14%
COc1cc(C2N=C(N)Nc3nc4ccccc4n32)ccc1OCCC(C)C (centres undefined) | -4%
Cc1cc(C)c(S(=O)(=O)c2ccccc2C)c(OCCN(C)C)n1 | -1%
Cc1ccc(-n2nc(CC#N)c(C#N)c2N)cc1Cl | -3%
Cc1ccc(OCCNC(=O)C(C)SCC(=O)Nc2ccc(F)cc2)cc1 (centres undefined) | 2%
CN(C)C(=S)NC(=O)C12CC3(C)CC(C)(CC(C)(C3)C1)C2 | -12%
Cc1ccccc1C(=O)NN1CCOCC1 | -11%
COc1ccc(Nc2cc(C(=O)NCc3ccco3)c3ccccc3n2)c(OC)c1 | -16%
COc1ccc(C(=O)NCC(C)NC(=O)c2ccc(OC)c(Br)c2)cc1Br (centres undefined) | 10%
CCc1ccc(NC(=O)CN2CCN(C3CCCCC3)C(=O)C2=O)cc1 | 23%
C=CCNC(=O)c1onc(CSc2ccncc2)c1C(=O)NCC=C | -18%
CN(C1CCS(=O)(=O)C1)S(=O)C12CC3CC(CC(C3)C1)C2 (centres undefined) | -21%
COc1ccccc1CNC(=S)Nc1cc(C)ccc1C | -3%
CC1CC(C)CN(S(=O)(=O)c2ccc(NC(=O)CCNC(=O)c3ccc([N+](=O)[O-])cc3)cc2)C1 (centres undefined) | 59%[activator]
Cc1cc(C)nc(NC(=O)CCC2CCCC2)c1 | -3%
Cc1ccc(C2Nc3ccccc3C(=O)N2CCN2CCNC2=O)cc1 (centres undefined) | 15%

Part of the list above, as comma-separated lines.
Compound,VDR inhibitor
O=C(COC(=O)[C@@H]1CCCN1S(=O)(=O)c1ccccc1F)c1ccccc1,9%
COc1cc2ccccc2cc1C(=O)Nc1ccc2oc(-c3ccc(F)cc3)nc2c1,-5%
CC1CC=CC2C1C(=O)N(Cc1ccccc1)C2c1ccc2ccccc2c1-c1ccc(N(C)C)cc1 (centres undefined),12%
Cc1cccc(/C=C/c2nc3ccccc3c(=O)[nH]2)c1,-17%
CCc1ccc(-c2cc(C)no2)cc1S(=O)(=O)NCCc1ccccc1,25%
COc1ccc(CC2C(=O)OC(C)(C)OC2=O)c(Cl)c1OC,3%
COc1ccc(NC(=O)CCCc2nnc3n(CCC(C)C)c(=O)c4sccc4n23)cc1Cl,7%
CCCn1c(=O)c2c(nc3n2CCN3c2ccc(C)cc2)n(C)c1=O,14%
CC1CCN(S(=O)(=O)c2cccc(C(=O)N(C)C3CCS(=O)(=O)C3)c2)CC1 (centres undefined),7%
O=C(Cc1ccccc1)Nc1sc2c(c1C(=O)Nc1ccccc1)CCCCC2,?
OCCC1CN(Cc2c(O)ccc3ccccc23)CCN1CCc1ccccc1 (centres undefined),?
N=c1sccn1CC(=O)NCCc1ccc(Cl)cc1,?
CCCCn1c(CCC(=O)O)nc2c1c(=O)[nH]c(=O)n2CCC,-6%
CCOC(=O)C(=O)N/N=C/c1cccc(Br)c1,-4%
Nc1ccc(C(=O)NCC(=O)O)cc1,-2%&-4%

Continued.
SMILES | VDR inhibitor
CCOc1ccccc1NC(=S)NCCc1ccccc1 | -11%
[O-]C(=C(C(=S)Nc1cccc2ccccc12)[n+]1ccccc1)c1ccc2c(c1)OCCO2 | -3%
COCCCNC(=O)CCSc1ccc(Cl)cc1 | 14%
Cc1ccc(S(=O)(=O)C(CNC(=O)C(=O)NCCc2ccccc2)c2cccs2)cc1 (centres undefined) | 4%
CCOC(=O)C1(Cc2cccc(F)c2)CCN(Cc2cnc(C)s2)CC1 | 14%
OCCOC[C@H]1O[C@H](OCCO)[C@H](OCCO)[C@@H](OCCO)[C@@H]1OCCO (tested in a mixture with another compound) | -2%
Cc1ccnc(NC(=O)COc2ccc(Cl)cc2)n1 | 9%
C[C@H](NC(=O)N1CCn2c1nc1ccccc12)C(=O)N1CCCCC1 | ?
COc1ccc(C)cc1NC(=O)C1CCCN(S(=O)(=O)c2ccc(-n3cnnn3)cc2)C1 (centres undefined) | 19%
NC(=O)c1c(NC(=O)c2cccnc2Cl)sc2c1CCCC2 | -8%
Cc1cc(C)nc(SCc2cc(=O)c(OC(=O)c3ccc(Br)o3)co2)n1 | ?
Cc1ccc(S(=O)(=O)N2C(=O)CCC2C(=O)Nc2ccc3c(c2)OCCO3)cc1 (centres undefined) | -19%
O=C(Nc1ccc(Cl)cc1C(F)(F)F)c1ccc(Cl)cc1 | -3%
CCCCn1cnc2c1c(=O)n(CC(=O)c1cc(C)n(C)c1C)c(=O)n2CC(C)C | 5%
Cc1cccc(N2CCN(S(=O)(=O)c3c(C)[nH]c(C)c3C(=O)N3CCCC3)CC2C)c1 (centres undefined) | 8%
COc1ccc(C(C(=O)NC2CCCC2)N(Cc2cccnc2)C(=O)Cc2cccs2)cc1OC (centres undefined) | -3%
O=C(c1ccc(F)c(S(=O)(=O)N2CCOCC2)c1)N1CCN(c2ccc(F)cc2)CC1 | -1%
CN1CCN(c2ccccc2NC(=O)c2c(F)cccc2F)CC1 | 1%
